Assay outcomes (PubChem BioAssay)
D2 ag = activates the human D2 dopamine receptor | hit rate 0.084% among 360,000 | P14416 | AID 624465 | activation, % (no concentration beside the values) | DiscoveRx PathHunter D2 beta-arrestin, luminescence, 90 min; 100% = 57 uM dopamine signal; in the data active = activation above about 40%; inconclusive = about 15% to 40%; inactive = below about 15%; also: compound concentration not given in the record; the text of the record calls up to 30% inactive
Target sequence (P14416 whole entry, looked up): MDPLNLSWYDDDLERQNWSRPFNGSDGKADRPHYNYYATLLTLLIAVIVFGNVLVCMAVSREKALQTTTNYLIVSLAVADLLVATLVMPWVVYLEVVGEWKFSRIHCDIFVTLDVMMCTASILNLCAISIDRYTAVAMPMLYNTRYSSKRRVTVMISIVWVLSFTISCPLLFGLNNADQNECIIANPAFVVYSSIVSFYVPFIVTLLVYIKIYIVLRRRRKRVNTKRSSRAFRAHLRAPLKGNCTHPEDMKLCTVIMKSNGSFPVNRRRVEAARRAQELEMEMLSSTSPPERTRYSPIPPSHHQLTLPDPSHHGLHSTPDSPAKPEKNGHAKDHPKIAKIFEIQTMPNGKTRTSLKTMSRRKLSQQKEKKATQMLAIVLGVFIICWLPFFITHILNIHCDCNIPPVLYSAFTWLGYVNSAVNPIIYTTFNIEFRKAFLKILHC
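DiscoveRx PathHunter D2 beta-arrestin cells (2,100/well) attached overnight, then compound-stimulated 90 min at 37 C in HBSS/10 mM HEPES/0.1% Tween-20 buffer; beta-galactosidase complementation read by luminescence after 1 h at ambient temperature. Dopamine 57 uM final (EC100) as control.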
TRPML1 inh = blocks the human TRPML1 channel; Q9GZU1; TRPML1-inducible cells, Ca2+ dye fluorescence, FDSS; stronger effect = lower value; inhibition of EC80 agonist-evoked calcium signal; activity change, negative = inhibition, % (no concentration beside the values); hit rate 0.02% among 390,000; AID 624415; in the data active means activity change below about -50%; inconclusive means about -30% to -50%; inactive means above about -30%;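 also: stimulus is agonist 54-4 at its EC80 concentration; % is scaled to controls: 0 for no effect and ±100 for the full control effect; compound concentration not given in the record; the text of the record puts the active cut at -80%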
Target sequence (Q9GZU1 whole entry, looked up): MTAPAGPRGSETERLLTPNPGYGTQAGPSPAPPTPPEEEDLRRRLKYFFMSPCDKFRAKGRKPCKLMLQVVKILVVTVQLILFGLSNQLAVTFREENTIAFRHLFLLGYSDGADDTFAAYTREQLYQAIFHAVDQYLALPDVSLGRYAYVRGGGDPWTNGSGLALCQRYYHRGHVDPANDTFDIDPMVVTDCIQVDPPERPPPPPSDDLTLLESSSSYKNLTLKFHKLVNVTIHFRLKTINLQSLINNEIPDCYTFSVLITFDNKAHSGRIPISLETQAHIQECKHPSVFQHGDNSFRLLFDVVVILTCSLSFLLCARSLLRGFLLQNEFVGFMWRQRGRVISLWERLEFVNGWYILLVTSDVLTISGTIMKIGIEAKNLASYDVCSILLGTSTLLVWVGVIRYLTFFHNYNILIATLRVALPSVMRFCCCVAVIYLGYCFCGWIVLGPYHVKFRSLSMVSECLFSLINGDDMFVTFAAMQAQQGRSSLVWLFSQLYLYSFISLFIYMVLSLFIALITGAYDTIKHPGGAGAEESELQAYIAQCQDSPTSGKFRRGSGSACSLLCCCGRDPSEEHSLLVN
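Calcium fluorescence in TRPML1-DL cells induced overnight with Tet: a 110 s read after compound pin addition, then a 110 s antagonist read after challenge with 54-4 at 4 uM final (EC80).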
D2 PAM = human D2 receptor positive allosteric modulation; hit rate 0.23% among 360,000; DiscoveRx D2 beta-arrestin cells, luminescence, 90 min; 100% = 57 uM dopamine signal; potentiation, % (concentration not given with the values); active = potentiation of 50% or more; inconclusive = 30% to 50%; inactive = 30% or less;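 also: compound concentration not given in the record; tested on top of an EC20 dose of dopamine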
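D2 cells co-treated with compound plus 50 nM dopamine (EC20) for 90 min at 37 deg C to detect potentiation. Beta-arrestin recruitment was read as enzyme-fragment luminescence after 1 h at ambient temperature. Full response was set by 57 uM dopamine.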
Six1-Eya2 blk = inhibitors of human Six1/Eya2 interaction; AID 651725; hit rate 0.56% among 360,000; Q15475+O00167; activity change, % (test concentration not listed); AlphaScreen GST-Six1/His-Eya2 binding, biochemical; stronger effect = lower value; control for the full effect not named in the record; in the data active = activity change below about -65%; inconclusive = about -30% to -65%; inactive = above about -30%; also: % is scaled to controls: 0 for no effect and ±100 for the full control effect; compound concentration not given in the record
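Compounds are tested against tagged Six1 and Eya2 proteins bridged by glutathione donor and nickel acceptor beads; after a one-hour incubation at 37 °C without light, AlphaScreen emission is recorded.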
TRPML1 ag = human mucolipin-1 channel agonism | Q9GZU1 | TRPML1-expressing cells, Ca2+ dye fluorescence, FDSS; host cell line not named in the record; reference of the full effect not given here | activation, % (concentration not given with the values) | hit rate 0.12% among 410,000 | AID 624414; in the data active = activation above about 50%; inconclusive = about 30% to 50%; inactive = below about 30%; also: 0% is about no effect; the text of the record puts the active cut at 80%
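Tet-induced TRPML1-DL cells, 1,500 per well, cultured overnight, were loaded with a no-wash Ca2+ dye for 45–90 min. Calcium fluorescence was recorded on the FDSS for 110 s after compound addition, before the EC80 agonist (4 uM 54-4) was added.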
PINK1 expr mod = PINK1 expression modulation; PINK1 immunofluorescence, high-content cytometry, 24 h; Potency, µM (top dose mostly 76.6 µM), for inactives: top-dose activation (PINK1 increase), actives largely listed as activators; hit rate 0.2% among 410,000; AID 624263; active = well fitted activation curve with a large enough effect; inconclusive = small, poorly fitted or top-dose-only effect; inactive = flat fitted curve, though single readings scatter; cell line not stated here;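 also: potency is read from the fitted curve at half-maximal effect; % of control where 0% means no effect; nearly all actives have a fitted effect of over 65% in size; a mitochondrial uncoupler was the plate control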
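Measures PINK1 amount and localization on or inside mitochondria by immunofluorescence. Stable cells get compounds at 5 concentrations for 24 hours before fixation and staining; CCCP controls included.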
Active calls of the source: *; ? = inconclusive; · = no result given; [ ] = remark or other dose.

The opening two records, to show the layout:
SMILES	D2 ag	TRPML1 inh	D2 PAM	Six1-Eya2 blk	TRPML1 ag	PINK1 expr mod
Fc1ccccc1-c1nc(NC2CCCC2)c2ccccc2n1	-0.1	31	-8	-1	1.0	?
CC(C(=O)NCCc1ccc(S(N)(=O)=O)cc1)N1C(=O)CC(C)(C)Sc2ccccc21 (stereo unspecified)	-0.3	-4	0	9	-0.5	0.2%

All compounds of this part (from the top)
SMILES	D2 ag	TRPML1 inh	D2 PAM	Six1-Eya2 blk	TRPML1 ag	PINK1 expr mod
Fc1ccccc1-c1nc(NC2CCCC2)c2ccccc2n1	-0.1	31	-8	-1	1.0	?
CC(C(=O)NCCc1ccc(S(N)(=O)=O)cc1)N1C(=O)CC(C)(C)Sc2ccccc21 (stereo unspecified)	-0.3	-4	0	9	-0.5	0.2%
COc1ccc2c(C)cc(=S)[nH]c2c1	-1.5	-3	-9	-17	-0.9	0.4%
CCOC(=O)C1=C(c2ccccc2)N=C2SCC(=O)N2C1c1ccc(OCC)c(OCC)c1 (stereo unspecified)	-4.4	9	-22	-3	-0.5	9.2%
CS(=O)(=O)N(CC(=O)N1CCN(c2ccccc2F)CC1)c1cccc(C(F)(F)F)c1	2.8	1	-1	2	0.9	-5.3%[38.3 µM]
O=C(COc1ccccc1F)c1ccc(O)cc1O	0.1	13	-3	3	-1.1	-1.8%
COCCNc1nnc(SCC(=O)NC2CCCCC2)s1	-4.1	3	-1	4	-0.2	-0.6%
COc1ccc(N2C(=O)C3C4C=CC(CC4)C3C2=O)c([N+](=O)[O-])c1 (stereo unspecified)	-1.4	-13	-5	-1	0.5	-4.5%[38.3 µM]
O=C(NNC(=O)C1C2C=CC(C2)C1C(=O)O)c1ccccc1 (stereo unspecified)	-7.3	19	-8	4	-0.3	3.2%
NC(=O)c1ccsc1NC(=O)COC(=O)C1CCCN1C(=O)c1cccs1 (stereo unspecified)	3.4	8	0	-1	-0.8	0.0%
CC(C)C[C@H]1CNC(=S)N1CC1CCN(CCC2CCCC2)CC1	-1.8	7	-17	0	-0.3	1.1%
O=C(Cn1c(=O)n2nc(-c3cccc(F)c3)nc2c2ccccc21)N1CCN(c2ccccc2F)CC1	·	-14	·	·	0.9	1.9%
Cc1oc2ncnc(N3CCOCC3)c2c1C(=O)NCCc1ccccc1	·	7	·	·	0.6	16%
Cc1ccc(NC(=O)CN2CCCN(Cc3ccccc3Cl)S2(=O)=O)c(C)c1	·	14	·	·	-0.2	0.1%
COc1cccc(CNC(=O)COC(=O)c2cccc(S(=O)(=O)N3CCN(C(C)=O)CC3)c2)c1	2.4	-8	7	-3	0.4	-2.1%
COc1ccc(/C=C2\SC(=S)N(C(Cc3ccccc3)C(=O)O)C2=O)cc1 (stereo unspecified)	-6.3	-11	-15	-2	-0.3	0.2%
COc1ccc(C(NC(=O)C(C)C)c2ccc3cccnc3c2O)cc1 (stereo unspecified)	-1.2	-16	11	-89*	0.3	0.9%
NS(=O)(=O)c1ccc(CNC(=O)C2(c3ccc(Cl)cc3)CC2)cc1	-3.8	-2	1	1	0.2	0.9%
Cn1c(SCC(=O)Nc2ccc(N3CCOCC3)cc2)nnc1C1CC1	-3.1	-9	-10	1	0.3	-0.8%
CCC(=O)Nc1ccc2c(c1)Cc1cc([N+](=O)[O-])ccc1-2	0.0	22	2	0	2.1	0.2%
Nc1ccc2nc(-c3cccs3)[nH]c2c1	0.8	15	-16	-9	-0.4	·
Cc1ccc(CN(C)C(=O)c2ccccc2Sc2ccccc2C#N)cc1	1.6	11	1	7	2.6	-0.6%
COc1ccc(N2CCN(c3nc(-c4cccs4)nc4ccccc34)CC2)cc1	0.1	3	1	?	-0.7	3.8%
Cc1ccc2nc(Cl)c(CNCc3ccccc3)cc2c1	-1.4	17	-17	12	0.1	2.6%
COc1ccc(-c2nnc(SCC(=O)Nc3ncc(C(F)(F)F)cc3Cl)n2CC(C)C)cc1	1.4	1	5	-13	2.0	-2.1%

Record cards (already shown). Values in the order: D2 ag, TRPML1 inh, D2 PAM, Six1-Eya2 blk, TRPML1 ag, PINK1 expr mod
`Cc1ccc(CN(C)C(=O)c2ccccc2Sc2ccccc2C#N)cc1` reads 1.6, 11, 1, 7, 2.6, -0.6%
`O=C(NNC(=O)C1C2C=CC(C2)C1C(=O)O)c1ccccc1` (stereo unspecified) reads -7.3, 19, -8, 4, -0.3, 3.2%
`COc1ccc(-c2nnc(SCC(=O)Nc3ncc(C(F)(F)F)cc3Cl)n2CC(C)C)cc1` reads 1.4, 1, 5, -13, 2.0, -2.1%
`CC(C)C[C@H]1CNC(=S)N1CC1CCN(CCC2CCCC2)CC1` reads -1.8, 7, -17, 0, -0.3, 1.1%
`Nc1ccc2nc(-c3cccs3)[nH]c2c1` reads 0.8, 15, -16, -9, -0.4, ·

More results
SMILES	D2 ag	TRPML1 inh	D2 PAM	Six1-Eya2 blk	TRPML1 ag	PINK1 expr mod
COc1ccccc1NC(=O)COC(=O)c1cc(C)nc2ccccc12	-2.2	-4	0	2	2.9	12%
Cn1c(=NC(=O)COc2ccccc2)sc2cccc(F)c21	-0.9	-12	0	4	0.8	1.4%
CC(C)CNC(=O)c1cc(-c2ccc3c(c2)OCO3)on1	-6.6	·	-7	-18	·	1.5%
Cc1ccc(NC(=O)NNC(=O)COc2ccc([N+](=O)[O-])cc2)cc1C	-2.4	10	-31	23	1.6	3.8%
CC(C)n1nnnc1C1c2ccccc2C(=O)N1CCOc1ccccc1 (stereo unspecified)	·	·	·	11	-0.8	-0.3%
CCOc1cc(C2C3=C(CC(C)(C)CC3=O)N(CCOC)C3=C2C(=O)CC(C)(C)C3)ccc1O	-2.0	·	-2	11	·	1.2%
CCNC(=O)NC(=O)CN(C)c1ccccc1	-1.5	-3	2	3	0.1	0.7%
Cc1ccc(SCCCCN2CCOCC2)cc1	-3.7	0	-21	-4	-0.3	0.4%
Cc1ccc(NC(=O)c2nc(S(C)(=O)=O)ncc2N(Cc2ccco2)Cc2ccco2)cc1	·	21	·	·	0.3	0.3%
CCOC(=O)c1nn(-c2ccc(F)cc2)c(=O)cc1OCC(=O)Nc1ccc(F)c(F)c1	-3.5	-10	-7	-6	-0.4	7.8%
COc1cccc(OCC(O)CN2CCC(Cc3ccccc3)CC2)c1 (stereo unspecified)	-0.7	40	-33	-11	3.3	-2.4%
COC(=NC(C)C)NC(C)C	-2.2	34	-1	9	1.1	-0.6%
CCS(=O)(=O)N1Cc2ccccc2CC1C(=O)Nc1ccccc1OC (stereo unspecified)	-14	·	-1	3	·	0.6%
CCN(CC)c1sc(S(=O)(=O)c2ccccc2)nc1S(=O)(=O)c1ccc(C)cc1	·	15	·	·	5.0	-1.2%
Cc1ccc(NS(=O)(=O)c2ccc(N/N=C/c3ccncc3)c([N+](=O)[O-])c2)c(C)c1	0.8	11	13	0	0.5	4.1%
Cc1cc(NC(=O)c2ccc3c(c2)OCO3)ccc1NC(=O)c1ccccc1	-3.3	13	-4	-4	1.1	11%
C[C@@H](C(=O)NCC1CC1)[C@@H]1C[C@@]1(C)[C@@H](NC(=O)OCc1ccccc1)c1ccccc1	-2.0	-15	-47	4	-0.2	3.4%
O=C(NC1CC1)C1=C[C@H](c2csc3ccccc23)C[C@H](OCc2ccc(CO)cc2)O1	5.7	58	13	-6	-1.0	2.8%
Cc1ccc(C(c2nnnn2C2CCCC2)N2CCc3ccccc32)cc1 (stereo unspecified)	-4.2	-6	10	-11	0.3	4.3%
O=C(Nc1ccccn1)c1ccc(-c2ccccc2)cc1	9.4	-5	-3	7	1.6	-0.2%
C=CCC[C@@H](Cc1ccc(F)cc1)C(=O)OC[C@H]1CCCN1C(=O)[C@@H](CC=C)CC(=O)N[C@H](CO)Cc1ccccc1	-0.1	4	-8	-4	0.3	-0.3%
COc1ccc(CN(C)C(=O)c2ccc(Oc3ccccc3)cc2)cc1F	0.9	8	-1	2	1.8	2.1%
CCOC(=O)c1ccccc1NC(=O)Cn1c(-c2nonc2N)nc2ccccc21	-0.7	4	3	1	2.1	6.7%
Cc1ccc(N=N/C(=C\O)C(=O)c2ccncc2)cc1	-2.1	3	-10	-20	0.6	13%
Cc1ccccc1N(CC(=O)NC1CCCC1)C(=O)C1(C)CC(=O)N=C2C=CC(Cl)=CN21 (stereo unspecified)	-3.6	-17	-14	5	-0.7	0.5%

(list continues)
SMILES	D2 ag	TRPML1 inh	D2 PAM	Six1-Eya2 blk	TRPML1 ag	PINK1 expr mod
COc1ccc(N2CCN(CCNC(=O)c3ccc4nc5ccccc5c(=O)n4c3)CC2)cc1	0.2	18	-3	?	3.0	-3.1%
O=C(NCCc1ccc(Cl)cc1)Nc1ccc(F)cc1	?	64	-8	-3	2.7	1.1%
CCCCOC(=O)c1ccc(NC(=O)c2cc(-c3cccs3)on2)cc1	·	-2	·	·	-0.7	-1.2%
CCOC(=O)c1c(NC(=O)COC(=O)Cn2cnc3c2c(=O)n(C)c(=O)n3C)sc(C)c1CC	-5.8	13	-10	0	2.8	1.4%
CCOc1ccc2ccccc2c1C1NC(=O)NC(C)=C1C(=O)OCCOC (stereo unspecified)	-6.6	17	-17	-12	-0.9	1.6%
Fc1ccc(NCc2nnc(SCc3nnc(-c4ccccc4)o3)n2Cc2ccccc2)cc1	-5.0	29	-5	-8	0.0	1.0%
Brc1ccccc1OCCCN1CCOCC1	-0.4	16	-21	2	0.5	0.2%[38.3 µM]
Fc1ccccc1NC(=S)N(CCN1CCCCC1)Cc1ccco1	-3.2	5	-17	-4	1.4	0.1%
Cc1ccc(S(=O)(=O)Nc2ccc3c(c2)nc2n3CCN(Cc3ccccc3)C2)cc1	-3.9	22	-13	-7	1.3	4.0%[38.3 µM]
O=C(Nc1ncc2c(n1)CC(c1ccc(Cl)cc1)CC2=O)c1ccco1 (stereo unspecified)	-0.3	13	0	-4	0.0	0.8%
COc1ccc(C)cc1S(=O)(=O)NCC(c1cccs1)S(=O)(=O)c1ccc(C)cc1 (stereo unspecified)	·	-19	·	·	1.5	1.8%
CCCC1CC(C#N)N(N(C)C)C1=C(C#N)C#N (stereo unspecified)	-15	0	1	10	-0.8	1.1%
COc1ccc2[nH]c(=O)c(CN(C(C)=O)c3ccc(C)cc3C)cc2c1	2.3	-8	-3	6	3.8	-1.5%
COC(=O)/C(=C1/Oc2cc3c(cc2S1)OCO3)C(F)(F)F	1.7	-5	10	0	0.7	·
CCN1C(=O)[C@H]2[C@@H](c3ccc(Cl)cc3)N3C(=O)CN(CCOC)C(=O)[C@@]3(Cc3ccccc3)[C@H]2C1=O	-1.1	-29	-3	-22	-0.8	-0.6%
CCOc1cccc(C(=O)Nc2nccs2)c1	-2.9	21	-4	-2	2.3	1.9%
COc1ccc(C2C=CC(=O)CC2)c(OC)c1 (stereo unspecified)	·	·	·	-1	-0.7	0.1%
Cc1cc(C)n(-c2ncnc3ccccc23)n1	4.1	-6	2	3	-0.2	-0.3%
CCN(C(=O)CSc1nnc(Cc2ccccc2F)n1N)C1CCS(=O)(=O)C1 (stereo unspecified)	-0.8	23	13	-2	-0.7	-0.5%
C=CCNCCCCOc1ccccc1	-3.6	-10	-28	-2	-0.8	-1.0%
Cc1csc(Sc2ccc([N+](=O)[O-])cc2C(=O)OCC(=O)NC2CCCC(C)C2C)n1 (stereo unspecified)	-0.7	3	1	-1	1.4	7.7%[38.3 µM]
